Screens as filed in PubChem BioAssay.
TRPV1 PAM = HTS Assay for Compounds that Act as Potentiators of the Vanilloid Receptor 1; TRPV1-expressing cells, Fluo-8 calcium influx, capsaicin EC20 potentiation; host cell line not named in the record; control for the full effect not named in the record; potentiation, % at 8.33 µM; AID 540277, 2011; Transient receptor potential cation channel subfamily V member 1 (Homo sapiens), Q8NER1; actives 0.02% (n = 320,000); active means potentiation above 80%; inconclusive means 30% to 80%; inactive means below 30%; further: 0% is about no effect
Target sequence (Q8NER1 whole entry, looked up): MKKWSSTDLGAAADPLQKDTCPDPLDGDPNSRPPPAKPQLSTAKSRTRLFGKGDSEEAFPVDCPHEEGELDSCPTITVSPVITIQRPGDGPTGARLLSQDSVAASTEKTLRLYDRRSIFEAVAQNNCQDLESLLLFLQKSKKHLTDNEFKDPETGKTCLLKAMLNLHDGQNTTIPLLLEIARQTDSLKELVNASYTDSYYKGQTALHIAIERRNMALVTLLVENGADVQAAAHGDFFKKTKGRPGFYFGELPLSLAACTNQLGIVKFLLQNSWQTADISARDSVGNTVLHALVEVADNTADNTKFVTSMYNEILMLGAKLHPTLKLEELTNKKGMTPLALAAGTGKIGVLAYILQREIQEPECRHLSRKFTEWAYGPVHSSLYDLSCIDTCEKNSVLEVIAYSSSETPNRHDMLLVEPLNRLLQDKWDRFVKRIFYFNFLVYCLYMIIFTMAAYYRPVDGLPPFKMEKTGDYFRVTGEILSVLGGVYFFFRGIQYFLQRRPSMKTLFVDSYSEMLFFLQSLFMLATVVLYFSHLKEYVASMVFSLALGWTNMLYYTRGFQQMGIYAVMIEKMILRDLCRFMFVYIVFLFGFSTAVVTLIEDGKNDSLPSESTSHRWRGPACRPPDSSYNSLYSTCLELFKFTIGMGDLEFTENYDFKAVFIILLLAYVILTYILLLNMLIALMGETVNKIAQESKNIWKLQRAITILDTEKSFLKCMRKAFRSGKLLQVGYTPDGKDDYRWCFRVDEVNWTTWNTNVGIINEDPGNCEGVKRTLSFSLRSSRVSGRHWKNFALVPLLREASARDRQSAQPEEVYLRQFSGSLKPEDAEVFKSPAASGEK
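Cells expressing TRPV1 were dye-loaded with Fluo-8 and read kinetically: 10 s baseline, 3 min after compound (agonist portion), then 2 min after EC20 capsaicin (allosteric enhancer portion). Calcium-bound dye fluorescence at 480/520 nm.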
D2 potentiator = Beta-Arrestin HTS for Positive Allosteric Modulators of the Human D2 Dopamine Receptor: Potentiators | D(2) dopamine receptor (Homo sapiens), P14416 | DiscoveRx D2 beta-arrestin cells, luminescence, 90 min; 100% = 57 uM dopamine signal | potentiation, % (no concentration beside the values) | actives 0.23% (n = 360,000) | AID 624464, 2012; active = potentiation of 50% or more; inconclusive = 30% to 50%; inactive = 30% or less;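 further: compound concentration not given in the record; tested on top of an EC20 dose of dopamine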
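PathHunter D2 cells, attached overnight at 37 deg C, received compound in DMSO plus dopamine at EC20 (50 nM final) for 90 min at 37 deg C. Beta-arrestin recruitment was read as luminescence after 1 h with detection reagent at ambient temperature.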
gsp ag = qHTS for Agonist of gsp, the Etiologic Mutation Responsible for Fibrous Dysplasia/McCune-Albright Syndrome: qHTS | actives 0.13% (n = 340,000) | Potency, µM (titrated, usually from 76.9 µM), for the others: at the highest dose activation (cAMP increase), most hits filed as activators | AID 624287, 2012 | gsp mutant cells, cAMP HTRF, 30 min; control for the full effect not named in the record; active = well fitted activation curve with a large enough effect; inconclusive = small, poorly fitted or top-dose-only effect, or another doubt; inactive = no such curve, though single readings can be large or run the other way; cell line not stated here;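 further: phosphodiesterase inhibitor Ro 20-1724 added with compounds to block cAMP breakdown; potency means the concentration at half of the fitted maximal effect; nearly all actives have a fitted effect of over 60% in size; about a fifth of the inactives were tested at one dose only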
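Cells in DMEM/10% FBS with G418 were pretreated with compounds in DMSO plus […] (300 uM stock) for 30 min at 37C. cAMP was measured by HTRF (cAMP-d2 plus anti-cAMP antibody-K) after 30 min at room temperature.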
Sfp inh = qHTS Assay for Inhibitors of Bacillus subtilis Sfp phosphopantetheinyl transferase (PPTase) | 4'-phosphopantetheinyl transferase ffp (Bacillus subtilis), Q9F4F7 | Biochemical Sfp PPTase activity, qHTS | Potency, µM, without a hit: max response, negative = inhibition, most hits filed as inhibitors | actives 3.5% (n = 310,000) | AID 1490, 2009; active means well fitted inhibition curve with a large enough effect; inconclusive means small, poorly fitted or top-dose-only effect, or another doubt; inactive means no such curve, though single readings can be large or run the other way;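 further: the enzyme is Sfp with the accession as filed and its product quenches rhodamine fluorescence; potency means the concentration at half of the fitted maximal effect; 0% = enzyme reaction without inhibitor and -100% = no enzyme wells; top concentration of the series not given in the record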
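Sfp 15 nM + cpd, 15 min RT; start w/ rhodamine-CoA 5 uM, BHQ-2-YbbR 12.5 uM (final); 50 mM Hepes pH 7.6, 10 mM MgCl2, 0.01% NP-40, 0.01% BSA; read 525/598 nm at 0 and 30 min.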
ClpP mod = qHTS Assay for Activators of ClpP. ATP-dependent Clp protease proteolytic subunit (Bacillus subtilis (strain 168)), P80244. purified B. subtilis ClpP, FRET peptide cleavage, 20 min. Potency, µM (top dose mostly 57.5 µM), inactives show at the top dose activity change, negative = active. actives 1.9% (n = 340,000). AID 651965, 2013; active = well fitted falling curve with a large enough effect; inconclusive = small, poorly fitted or top-dose-only effect; inactive = no such curve, though single readings can be large or run the other way; further: potency means the concentration at half of the fitted maximal effect; the source files actives as falling curves though it sought activators and does not explain the sign; nearly all actives have a fitted effect of over 65% in size; many hits overshoot -100%
Target sequence (P80244 whole entry, looked up): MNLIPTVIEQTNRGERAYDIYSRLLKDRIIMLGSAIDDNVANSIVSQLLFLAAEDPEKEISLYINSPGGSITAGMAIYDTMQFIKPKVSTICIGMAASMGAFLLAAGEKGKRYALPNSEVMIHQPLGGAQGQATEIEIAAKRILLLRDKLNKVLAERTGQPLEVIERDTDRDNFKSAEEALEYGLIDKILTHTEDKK
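Purified B. subtilis ClpP, 10 microg/mL final in Tris/HCl pH8 with KCl, BSA, glycerol and Tween-20, cleaved an Abz/nitrotyrosine-quenched decapeptide. Fluorescence (ex 320, em 430) was read at 0 and 20 min at room temperature. Delta was normalized to 5.8 microM ADEP and DMSO/no-enzyme controls.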
gsp antagonist = qHTS for Antagonists of gsp, the Etiologic Mutation Responsible for Fibrous Dysplasia/McCune-Albright Syndrome: qHTS. gsp-mutant cells, cAMP HTRF, 30 min; control for the full effect not named in the record. Potency, µM (titrated, usually from 76.9 µM), for inactives: at the top dose activity change, negative = inhibition, most hits filed as inhibitors. actives 0.4% (n = 340,000); active = falling curve of any shape with a large fitted effect; inconclusive = falling curve, mostly with a smaller effect; inactive = flat or rising curve; cell line not stated here;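 further: intracellular cAMP measured with PDE inhibitor Ro 20-1724 present during compound exposure; potency means the concentration at half of the fitted maximal effect; on the % scale 0 is the no-effect control and ±100 the full control effect; nearly all actives have a fitted effect of over 65% in size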
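Cells, 2000/well, grown 16–24 h in DMEM 10% FBS with 0.5 mg/ml G418, then compounds plus […] (300 uM addition stock), 30 min at 37C. cAMP read by HTRF (cAMP-d2 and anti-cAMP antibody-K in lysis buffer) after 30 min RT.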
Menin MLL FP FL = qHTS Assay for Inhibitors Targeting the Menin-MLL Interaction in MLL Related Leukemias: Competition With Fluorescein Labeled MLL-derived Peptide | FP activity change, % at 61.4 µM | Fluorescence polarization, fluorescein-MLL peptide displacement from menin | 290,000 tested, under 10 active; inconclusive = falling polarisation curve, or a change in total fluorescence; inactive = total fluorescence flat and polarisation flat or rising; no compound was filed as active; the % refers to the polarisation; negative = inhibition;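 further: % of control where 0% means no effect; inhibitors lower the polarisation; unlabelled MLL peptide was the positive control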
Starred values were filed as active, the others as inactive; ? = inconclusive; nt = no result given; & = joins results of further samples; [ ] = another dose, or the depositor's remark. Compounds as they come; overall some 5.1% were active at least once.

entry	molecule	TRPV1 PAM	D2 potentiator	gsp ag	Sfp inh	ClpP mod	gsp antagonist	Menin MLL FP FL
1	Cc1cc(=O)oc2cc(OCC3CC(c4ccc(Cl)cc4)=NO3)ccc12 (stereo unspecified)	5	-8	-8%	12%	28µM*	7%	13
2	CC1CCN(C(=O)Cn2cc(C#N)c3ccccc32)CC1	5	7	-40%[inhibitor]	8%	-6.3%	2%	2.0
3	COc1ccc(Cn2c(-c3ccc(OC)cc3)nc3ccccc32)cc1	-8	-5	-111%[inhibitor]	-15%	-1.1%	17%	3.4
4	CN(C)CCN(C(=O)c1ccc2c(c1)CCCC2)c1nc2c(F)cccc2s1	2	5	-5%[15.4 µM]	-24%	0.5%	6%	2.0
5	CCn1ncc(Cl)c1C(=O)NC(=S)Nc1c(C)cc(C)cc1[N+](=O)[O-]	6	-26	0%	-11%	0.3%	0%	3.3
6	COc1ccc(C(=O)NNC(=S)NC(=O)c2ccccc2)cc1	-7	-11	-22%	13%	nt	3%	3.2
7	COc1cccc(C2CC(c3ccc(Cl)cc3)Nc3nc(N)nn32)c1 (stereo unspecified)	-11	-3	1%	-18%	-0.5%	-1%	3.5
8	N#Cc1nc(-c2ccccc2)oc1NCC1CCCO1 (stereo unspecified)	-13	-10	-1%	-1%	70%	3%	7.1
9	c1cc2c(cc1Cn1cnnn1)OCO2	12	-16	-23%	6%	3.1%	14%	-1.3
10	O=C(NCC(=O)N1CCN(C(=O)c2ccccc2)CC1)c1ccccc1	1	-13	-6%	nt	-1.0%	9%	nt
11	CC(C)(C)NC(=O)NC(=O)COC(=O)c1cccc(S(=O)(=O)N2CCCCC2)c1	22	15	9%[15.4 µM]	-2%	0.6%	-3%	-0.6
12	N#Cc1c(-c2ccc([N+](=O)[O-])cc2)nc2n(c1=O)CCS2	4	0	14µM*	3%	0.7%	-6%	4.6
13	Fc1ccc(Cl)cc1/C=N/n1cnnc1SCc1ccccc1	-3	-1	-40%[inhibitor]	17%	-13%	-10%	-0.4
14	O=C1CCC([N+](=O)[O-])C(c2ccc(Cl)cc2Cl)N1 (stereo unspecified)	-8	-16	9%	12%	0.4%	0%	-0.2
15	CCOc1ccc(C(=O)COC(=O)c2cc([N+](=O)[O-])ccc2N2CCOCC2)cc1	3	-65	38%[15.4 µM]	nt	nt	0%	nt
16	CC(=O)Nc1cccc(C(=O)OC(C)C(=O)NCc2ccc3c(c2)OCO3)c1 (stereo unspecified)	-1	3	-74%[inhibitor]	nt	-1.0%	-4%	nt
17	CCC(=O)Nc1ccc(-c2nc3ccccc3c(=O)o2)cc1	3	13	10%[15.4 µM]	17%	nt	-23%	-2.6
18	COc1ccc(Cl)cc1NC(=O)CN(C)C(=O)CCSc1ccc(C)cc1	3	-9	30%	nt	1.0%	-19%	nt
19	[2H]C(CCOS(N)(=O)=O)c1ccc(C(C)(C)C)cc1 (stereo unspecified)	-2	-8	nt	11%	1.0%	4%	-4.3
20	O/N=C/c1ccc(OCc2ccccc2F)c(Cl)c1	0	1	-1%	-4%	-2.1%	5%	0.3
21	CCCn1nc(C(=O)Nc2nnc(C3CC3)s2)c2ccccc2c1=O	-2	-11	3%	nt	-3.0%	-7%	nt
22	Cn1cccc1CNC(=O)Nc1ccc(Cl)c(Cl)c1	-13	-34	-34%	8%	0.4%	-8%	-1.5
23	C#CC1(O)CC(C)N(C)C(C)C1 (stereo unspecified)	-2	-3	12%	13%	-0.9%	11%	2.7
24	Cc1cccc(C)c1NC(=O)NN=C1CCCCC1	14	-2	?	-4%	nt	-2%	3.2
25	CCCCCC(=O)N1C[C@H](n2cc(COC(=O)c3ccccc3)nn2)[C@@H](O)C[C@@H]1c1ccccc1	nt	3	-49%[inhibitor]	nt	2.1%	nt	nt
26	CCn1c(SCC(=O)Nc2ccc3c(c2)OCO3)nnc1-c1cnccn1	12	8	1%	15%	-2.7%	13%	-0.1
27	CC1=C(/C=C/C(C)=C/C=C/C(C)=C\C(=O)O)C(C)(C)CCC1	nt	-5	nt	6%&-28%&-21%&-8%	-4.1%	-4%	-3.2&-0.7&4.7
28	COc1ccc(CN(CC(=O)NCc2ccc3c(c2)OCO3)C(=O)c2csnn2)cc1	2	-6	-5%[15.4 µM]	-12%	-1.6%	4%	3.8
29	COc1cccc(Nc2nc(-c3ccc4c(c3)OCCO4)cs2)c1	7	-11	7%	-20%	-1.9%	-3%	-1.8
30	CN(C)C(=O)c1ccc(NC(=O)c2ccc(-c3ccc(Cl)cc3)o2)cc1	9	-10	6%	nt	?	?	nt
31	COc1ccc(C2=CC(=O)CC(C)(C)C2)cc1	-7	-3	-1%	nt	-7.2%	5%	nt
32	C=CCn1c(-c2ccc3[nH]c(C)c(C)c3c2)n[nH]c1=S	2	-12	2%	-7%	?	5%	-0.3
33	COc1ccccc1-c1nc(-c2ccccc2)[nH]c(=O)c1C#N	9	-2	?	23%	nt	-18%	-0.1
34	OCCN1CCN(C(=S)c2ccc(Br)cc2)CC1	-9	-11	-22%	32µM*	0.2%	-3%	-0.8
35	CCC/C(=N\NC(=O)CNC(=O)c1ccc(Cl)cc1)c1ccccc1	2	-10	-1%[15.4 µM]	5%	-2.6%	-4%	2.5
36	Cc1ccnc(NC(=O)c2cc(-n3cnnc3)ccc2Cl)c1	6	-5	27%	29%	1.5%	-3%	2.9
37	CN1CCN(S(=O)(=O)c2ccc(Nc3ccc(F)cc3)nc2)CC1	10	-6	-2%[15.4 µM]	nt	2.3%	1%	nt
38	N/C(=N\OC(=O)c1ccc([N+](=O)[O-])cc1)c1cccnc1	-1	29	-5%	12%	1.7%	3%	3.0
39	Cc1ccc(S(=O)(=O)N2CCC(C(=O)OCC(=O)N3C(C)CCCC3C)CC2)cc1C (stereo unspecified)	nt	-8	-42%[inhibitor]	nt	1.4%	nt	nt
40	COc1ccccc1CC(=O)Nc1c[nH]c(=O)[nH]c1=O	?	-5	0%	29%	?	14%	4.5

Four entries already listed, ordered by SMILES length, lowest first.
entry	molecule	TRPV1 PAM	D2 potentiator	gsp ag	Sfp inh	ClpP mod	gsp antagonist	Menin MLL FP FL
40	COc1ccccc1CC(=O)Nc1c[nH]c(=O)[nH]c1=O	?	-5	0%	29%	?	14%	4.5
33	COc1ccccc1-c1nc(-c2ccccc2)[nH]c(=O)c1C#N	9	-2	?	23%	nt	-18%	-0.1
32	C=CCn1c(-c2ccc3[nH]c(C)c(C)c3c2)n[nH]c1=S	2	-12	2%	-7%	?	5%	-0.3
39	Cc1ccc(S(=O)(=O)N2CCC(C(=O)OCC(=O)N3C(C)CCCC3C)CC2)cc1C (stereo unspecified)	nt	-8	-42%[inhibitor]	nt	1.4%	nt	nt

(list continues)
entry	molecule	TRPV1 PAM	D2 potentiator	gsp ag	Sfp inh	ClpP mod	gsp antagonist	Menin MLL FP FL
41	CCCCN(CC)S(=O)(=O)c1ccc(C(=O)Nc2nnc(COC)o2)cc1	-15	-4	-25%	18%	0.9%	-15%	-0.6
42	CC(C)NC(=S)NNC(=O)C12CC3CC(CC(C3)C1)C2	1	-8	-43%[inhibitor]	6%	-0.3%	8%	-1.4
43	COc1ccc(F)cc1S(=O)(=O)N1CCC2(CC1)OCCN2S(=O)(=O)c1cccs1	-5	24	-2%	nt	0.2%	1%	nt
44	Cc1cc(C)n(-c2nc3ccccc3c(=O)n2OCc2ccc(F)cc2)n1	-7	14	?	-6%	-1.6%	1%[15.4 µM]	2.5
45	Cc1ccc(Sc2c(C)nn(C(=O)CNS(=O)(=O)c3ccc(F)cc3)c2C)cc1	-24	-12	-23%	-11%	-30%	-3%	4.6
46	O=S(=O)(NCC(c1ccccc1)N1CCNCC1)c1ccc(Cl)cc1 (stereo unspecified)	-16	-7	-38%[inhibitor]	-1%	-1.2%	15%	2.3
47	O=C(c1cc2ncccn2n1)N1CCc2c([nH]c3ccccc23)C1c1ccccc1F (stereo unspecified)	3	-2	0%[15.4 µM]	15%	nt	-3%	4.0
48	CCOc1cc(C(=O)OCc2ccc(C(=O)OC)o2)cc(Br)c1OC	0	13	-25%	11%	0.0%	3%	1.2
49	COc1cc(O)cc(/C=C/c2ccccc2)c1	nt	-7	-3%	-26%	nt	-10%	7.1
50	CC(=O)c1c(C)[nH]c(C(=O)OCC(=O)N(CC(C)C)C2CCS(=O)(=O)C2)c1C (stereo unspecified)	-10	3	-5%	nt	-0.6%	-1%	nt
51	CCCCN(C(=O)c1cccs1)C1CCS(=O)(=O)C1 (stereo unspecified)	4	24	33%	nt	5.6%	11%	nt
52	COc1ccc(NC(=O)COC(=O)c2ncc(Cl)c(Cl)c2Cl)c(OC)c1	5	21	-44%[inhibitor]	-9%	-0.7%	?	-3.1
53	Cc1cc(OCC(=O)NCc2ccccn2)c2c(C)cc(=O)oc2c1	0	-1	-3%	16%	3.4%	-9%	-1.1
54	CN1CCN(C2Cc3ccc(Cl)cc3Sc3ccc(F)cc32)CC1 (stereo unspecified)	nt	-23	-12%[15.4 µM]	nt	nt	21%	nt
55	CNNC(=S)NCCC1=CCCCC1	-23	2	-15%	10%	2.1%	4%	0.8
56	Cc1nc2nc(C)c(NS(=O)(=O)c3cccs3)c(=O)n2[nH]1	0	-6	1%	4%	nt	7%	-17
